# Source: PubChem
# Ecoli rRNA inh: inhibitors of bacterial rRNA selective over humanized ribosomes; GFP signal change (wild-type ribosome), % (test concentration not listed); actives 1.6% (n = 350,000); E. coli WT GFP vs humanized-ribosome RFP mutants, fluorescence, 24 h; active compounds read low; DMSO median 0, no signal -100; AID 720706;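 active = significant combined selectivity score with lowered wild-type GFP, culture density cut under 30%, mutant RFP and density less affected; inactive = any of these conditions unmet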; also: one replicate is shown; some compounds called inactive have numbers as strong as hits
# Ecoli rRNA inh OD600: recorded beside Ecoli rRNA inh, whose call it bears; OD600 change, %; measured here: OD600 growth;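 optical density of the mix in the first replicate; 0 = DMSO median and -100 = no signal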
# Ecoli rRNA inh RFP: recorded beside Ecoli rRNA inh, whose call it bears; RFP signal change, %; measured here: RFP humanized mutant strains;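 first replicate; 0 = DMSO median and -100 = no signal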
# Numbers without * were called inactive. A portion of the library; the hit share may differ from the screen's.
[1] C[C@H](CO)N1C[C@H](C)[C@H](CN(C)C)OCCCC[C@H](C)Oc2ccc(NS(=O)(=O)c3ccccc3)cc2C1=O
[2] CC(C)[C@H]1COCc2cn(nn2)CCC[C@@H](C)C(=O)N1
[3] CCC(=O)N1CC(=O)N2[C@@H](CO)[C@H](c3ccc(C#CC(C)C)cc3)[C@@H]2C1
[4] CO[C@H]1CN(C)C(=O)c2ccc(NC(=O)Nc3cccc(F)c3)cc2OC[C@@H](C)N(C(=O)C2CC2)C[C@@H]1C
[5] COc1ccc2c3c(n(C)c2c1)[C@@H](CO)N(C(=O)c1ccncc1)CC31CCN(C)CC1
[6] O=C(c1ccncc1)N1CC(=O)N2[C@H](C1)[C@H](c1ccc(C#CCC3CCCC3)cc1)[C@@H]2CO
[7] CCC(=O)N1C[C@H](C)[C@@H](OC)CN(C)C(=O)c2cc(NC(=O)c3cc(C)on3)ccc2OC[C@@H]1C
[8] COc1cccc(-c2ccc3c(c2)[C@@H]2[C@@H](CCN2Cc2ccccc2OC)[C@@H](CO)N3)c1
Compound	1	2	3	4	5	6	7	8
Ecoli rRNA inh	4	7	6	-3	3	-35	-2	2
Ecoli rRNA inh OD600	7	17	-9	-13	-2	-68	-1	2
Ecoli rRNA inh RFP	-0.8	-4.7	1.4	5.2	-2.5	-2.0	-1.7	5.9

[9] CO[C@@H]1CN(C)C(=O)c2cc(NS(=O)(=O)CC(F)(F)F)ccc2OC[C@@H](C)N(Cc2nccs2)C[C@H]1C
[10] C[C@@H]1CN([C@@H](C)CO)C(=O)CCCn2nncc2CO[C@@H]1CN(C)C(=O)NC1CCCC1
[11] C[C@H](CO)N1C[C@H](C)[C@@H](CN(C)Cc2ccc(C(=O)Nc3ccccc3N)cc2)OCCCC[C@H](C)Oc2ccc(N(C)C)cc2C1=O
[12] COc1ccccc1-c1cnc2c(c1)C(=O)N([C@@H](C)CO)C[C@H](C)[C@@H](CN(C)CC1CCOCC1)O2
[13] O=C(Nc1ccc(Cl)cc1)N1C[C@@H]2[C@H](c3ccccc31)[C@@H](CO)N2C(=O)c1ccccn1
[14] C[C@@H]1CN([C@H](C)CO)S(=O)(=O)c2ccc(-c3ccccc3)cc2O[C@@H]1CN(C)Cc1ccccc1
[15] CCCN(C)C[C@@H]1OCCCC[C@@H](C)Oc2ccc(NS(=O)(=O)c3ccc(C)cc3)cc2C(=O)N([C@H](C)CO)C[C@H]1C
[16] C[C@H]1CN([C@@H](C)CO)C(=O)c2cc(C#CCc3ccccc3)cnc2O[C@H]1CN(C)CC1CC1
Compound	9	10	11	12	13	14	15	16
Ecoli rRNA inh	0	0	3	4	-25*	-25	-3	0
Ecoli rRNA inh OD600	-4	5	2	9	-17*	-49	12	4
Ecoli rRNA inh RFP	1.8	1.4	0.5	-2.1	0.0*	5.4	4.1	2.2

[17] COc1ccccc1NC(=O)N1CC(=O)N2[C@H](CO)[C@@H](c3ccc(C#CCC(C)C)cc3)[C@H]2C1
[18] C[C@@H]1CN([C@H](C)CO)S(=O)(=O)c2ccc(C#CC3CCCC3)cc2O[C@@H]1CN(C)C(=O)c1cccc(F)c1
[19] Cc1ccccc1-c1ccc([C@@H]2[C@@H](CO)N3C(=O)CN(C(=O)c4cccnc4)C[C@H]23)cc1
[20] COc1ccc2c3c([nH]c2c1)[C@@H](CO)N(CC1CC1)CC31CN(Cc2cc(F)ccc2F)C1
[21] O=C(C1CCOCC1)N1CC(=O)N2[C@H](CO)[C@H](c3ccc(-c4cccnc4)cc3)[C@H]2C1
[22] CCCC(=O)Nc1ccc2c(c1)OC[C@H](C)N(C(=O)c1ccccc1F)C[C@@H](C)[C@@H](OC)CN(C)C2=O
[23] COc1ccc(C#Cc2ccc([C@H]3[C@H]4CN(C(C)=O)CC(=O)N4[C@H]3CO)cc2)cc1
[24] CNC[C@@H]1Oc2cc(C#Cc3ccncc3)ccc2S(=O)(=O)N([C@@H](C)CO)C[C@H]1C
Compound	17	18	19	20	21	22	23	24
Ecoli rRNA inh	-5	4	0	-10	-2	3	3	0
Ecoli rRNA inh OD600	-33	5	-1	-36	-1	-1	-1	-7
Ecoli rRNA inh RFP	24	1.3	-2.5	2.3	-1.5	-5.6	-0.5	-0.1

[25] CCCN(C)C[C@@H]1OCCCC[C@@H](C)Oc2ccc(NS(C)(=O)=O)cc2C(=O)N([C@H](C)CO)C[C@@H]1C
[26] CC(=O)N1[C@H](CO)[C@H](c2ccc(-c3ccccc3)cc2)[C@H]1CNC(=O)C1CC1
[27] COc1ccc2c3c(n(C)c2c1)[C@H](CO)N(Cc1ccc2c(c1)OCO2)CC31CN(C)C1
[28] Cc1noc(C)c1NC(=O)Nc1cccc2c1O[C@H](CN(C)S(=O)(=O)c1ccccc1)[C@H](C)CN([C@@H](C)CO)C2=O
[29] CO[C@H]1CN(C)C(=O)c2cc(NS(C)(=O)=O)ccc2OC[C@@H](C)N(Cc2ccccn2)C[C@H]1C
[30] C[C@@H]1CN([C@H](C)CO)S(=O)(=O)c2ccc(-c3cccnc3)cc2O[C@H]1CN(C)C(=O)C1CC1
[31] CCc1cnc(N2[C@H](C#N)[C@@H](c3ccccc3C3=CCCC3)[C@@H]2CO)s1
[32] C[C@H](CO)N1C[C@H](C)[C@H](CN(C)C(=O)c2ccccc2)OCc2cn(nn2)CCCC1=O
Compound	25	26	27	28	29	30	31	32
Ecoli rRNA inh	3	-4	1	3	3	-3	-31	3
Ecoli rRNA inh OD600	8	5	7	10	3	-8	-64	6
Ecoli rRNA inh RFP	-0.3	-0.7	0.2	2.4	1.8	-4.1	9.9	-1.2

[33] CO[C@@H]1CN(C)C(=O)c2cc(NC(=O)Nc3cccc(Cl)c3)ccc2OC[C@H](C)N(C(=O)Nc2c(C)noc2C)C[C@H]1C
[34] C[C@@H]1CN([C@H](C)CO)C(=O)CCCn2cc(nn2)CO[C@H]1CN(C)Cc1ccncc1
[35] CNC(=O)C[C@@H]1CC[C@@H]2[C@H](COc3ccc(NC(=O)c4ccc(F)cc4)cc3C(=O)N2C)O1
[36] CCC(=O)Nc1ccc2c(c1)C(=O)N(C)C[C@H](OC)[C@H](C)CN(CC1CCOCC1)[C@H](C)CO2
[37] C[C@@H]1CN([C@@H](C)CO)C(=O)c2cc(NS(=O)(=O)c3ccccc3)ccc2O[C@@H]1CN(C)C(=O)Nc1ccc(C(F)(F)F)cc1
[38] COc1ccc2c3c(n(C)c2c1)[C@H](CO)NCC31CN(C(=O)c2ccccc2)C1
[39] C[C@@H]1CN([C@H](C)CO)C(=O)c2cc(NC(=O)Nc3ccccc3)ccc2O[C@H]1CN(C)C(=O)Nc1ccc2c(c1)OCO2
[40] CCCC#Cc1cnc2c(c1)C(=O)N([C@H](C)CO)C[C@H](C)[C@H](CN(C)C(=O)C1CCCCC1)O2
Compound	33	34	35	36	37	38	39	40
Ecoli rRNA inh	-5	-1	2	1	-8	-2	4	4
Ecoli rRNA inh OD600	-8	12	9	9	-16	1	-1	13
Ecoli rRNA inh RFP	1.2	-0.4	-1.1	-2.6	0.5	4.2	-3.8	4.0

[41] N#C[C@H]1[C@H](c2ccccc2-c2ccc(F)cc2)[C@H](CO)N1C(=O)Cc1ccncc1
[42] CC(C)NC(=O)Nc1ccc2c(c1)C(=O)N([C@@H](C)CO)C[C@@H](C)[C@H](CN(C)C(=O)CCCN(C)C)OCCCC[C@H](C)O2
[43] C[C@@H]1CCCCO[C@H](CN(C)C(=O)c2ccncc2)[C@@H](C)CN([C@H](C)CO)C(=O)c2cc(NC(=O)C3CCCCC3)ccc2O1
[44] C[C@@H]1CN([C@@H](C)CO)C(=O)CCCn2cc(nn2)CO[C@@H]1CN(C)S(C)(=O)=O
[45] C[C@@H]1CN([C@H](C)CO)C(=O)c2cccc(NS(=O)(=O)c3ccc(Cl)cc3)c2O[C@H]1CN(C)S(=O)(=O)c1cn(C)cn1
[46] O=C(C1CCOCC1)N1C[C@@H]2[C@H](c3ccccc31)[C@@H](CO)N2C(=O)Cc1ccccn1
[47] CN(C)C(=O)c1ccc(-c2ccc3c(c2)[C@@H]2[C@@H](CCN2Cc2cncnc2)[C@@H](CO)N3)cc1
[48] CC(C)(C)S(=O)N1Cc2cc(C(=O)N3CCN(Cc4ccccc4)CC3)nc(-c3cccc(-c4cc5ccccc5o4)c3)c2[C@H]1CCO (some centres undefined)
Compound	41	42	43	44	45	46	47	48
Ecoli rRNA inh	-4	2	3	0	0	2	0	3
Ecoli rRNA inh OD600	7	7	10	3	3	4	18	6
Ecoli rRNA inh RFP	-1.0	0.4	-1.9	-4.0	0.0	1.1	6.4	9.0

[49] CCC(=O)Nc1ccc2c(c1)C(=O)N(C)[C@@H]1CC[C@@H](CC(=O)Nc3cccc(OC)c3)O[C@@H]1CO2
[50] CC(C)CC#Cc1ccc([C@@H]2[C@H](CO)N3C(=O)CN(C(=O)NC(C)C)C[C@@H]23)cc1
[51] CC(C)NC(=O)Nc1cccc2c1O[C@H](CN(C)S(C)(=O)=O)[C@@H](C)CN(C)C2=O
[52] C/C=C/c1ccc([C@H]2[C@@H](CO)N(C(=O)CC)[C@H]2CN(C)S(C)(=O)=O)cc1
[53] CCCC#Cc1ccc2c(c1)O[C@@H](CN(C)C(=O)C1CCCCC1)[C@@H](C)CN([C@@H](C)CO)S2(=O)=O
[54] CNC[C@H]1Oc2ncc(C#Cc3ccccc3F)cc2C(=O)N([C@H](C)CO)C[C@H]1C
[55] Cc1noc(C)c1NC(=O)Nc1ccc2c(c1)C(=O)N([C@H](C)CO)C[C@@H](C)[C@H](CN(C)S(=O)(=O)c1ccccc1)O2
[56] CO[C@H]1CN(C)C(=O)c2cc(NC(=O)C3CCOCC3)ccc2OC[C@H](C)N(C(=O)c2ccccc2)C[C@@H]1C
Compound	49	50	51	52	53	54	55	56
Ecoli rRNA inh	0	0	-2	3	-4	2	5	2
Ecoli rRNA inh OD600	0	-1	2	4	-2	-2	11	2
Ecoli rRNA inh RFP	0.8	1.1	-1.1	1.9	5.6	-1.0	-0.5	-1.7

[57] CCCNC(=O)Nc1ccc2c(c1)C(=O)N(C)C[C@H](OC)[C@@H](C)CN(CC1CCCC1)[C@@H](C)CO2
[58] CC(=O)N(C)C[C@@H]1Oc2cc(C#CC3CC3)ccc2S(=O)(=O)N([C@H](C)CO)C[C@H]1C
[59] CO[C@H]1CN(C)C(=O)c2ccc(NS(=O)(=O)CC(F)(F)F)cc2OC[C@H](C)N(C(=O)NC(C)C)C[C@H]1C
[60] COCC(=O)N[C@H]1C=C[C@@H](CC(=O)N2CCCCC2)O[C@H]1CO
[61] C/C=C/c1cccc(-c2nc(C(=O)NC3CCC3)cc3c2[C@@H](CCO)N([S@](=O)C(C)(C)C)C3)c1
[62] C[C@H]1CN([C@@H](C)CO)C(=O)c2cccc(NC(=O)CCCCCC(=O)Nc3ccccc3N)c2O[C@H]1CN(C)C(=O)Nc1ccccc1
[63] CCS(=O)(=O)N1CC2(CN[C@H](CO)c3c2c2ccc(OC)cc2n3C)C1
[64] CO[C@@H]1CN(C)C(=O)c2ccc(NS(C)(=O)=O)cc2OC[C@@H](C)N(Cc2ccccc2)C[C@H]1C
Compound	57	58	59	60	61	62	63	64
Ecoli rRNA inh	-3	1	-2	0	-3	0	4	1
Ecoli rRNA inh OD600	-5	-3	0	4	-2	4	7	-6
Ecoli rRNA inh RFP	0.9	-0.3	-0.9	0.2	19	0.9	-3.3	1.0

# Two compounds picked at random from the list so far:
[57] CCCNC(=O)Nc1ccc2c(c1)C(=O)N(C)C[C@H](OC)[C@@H](C)CN(CC1CCCC1)[C@@H](C)CO2
[61] C/C=C/c1cccc(-c2nc(C(=O)NC3CCC3)cc3c2[C@@H](CCO)N([S@](=O)C(C)(C)C)C3)c1
Compound	57	61
Ecoli rRNA inh	-3	-3
Ecoli rRNA inh OD600	-5	-2
Ecoli rRNA inh RFP	0.9	19

# The list continues.
[65] CCC(=O)N1[C@H](CN(CC)C(C)=O)[C@@H](c2ccc(-c3ccccc3)cc2)[C@@H]1CO
[66] CC(C)NC(=O)N1[C@H](CO)[C@@H](c2ccccc2)[C@@H]1CN(C)C(=O)c1ccccc1
[67] CCC(=O)N1CC[C@@H]2[C@H](CO)Nc3ccc(C#Cc4cccc(OC)c4)cc3[C@@H]21
[68] COc1ccc2c3c(n(C)c2c1)[C@H](CO)N(Cc1ccc(Cl)cc1)CC31CN(C(=O)NC(C)C)C1
[69] C/C=C/c1ccc2c(c1)[C@H]1[C@H](CCN1C(=O)COC)[C@@H](CO)N2
[70] CO[C@H]1CN(C)C(=O)c2ccc(NS(C)(=O)=O)cc2OC[C@@H](C)N(CC2CCCCC2)C[C@@H]1C
[71] CCCN(C)C[C@H]1Oc2cc(-c3cccc(F)c3)ccc2S(=O)(=O)N([C@@H](C)CO)C[C@H]1C
[72] Cc1ccc(S(=O)(=O)Nc2ccc3c(c2)C(=O)N([C@@H](C)CO)C[C@H](C)[C@@H](CN(C)C(=O)Nc2ccc4c(c2)OCO4)O3)cc1
[73] C[C@H]1CN([C@@H](C)CO)S(=O)(=O)c2ccc(C#CC3CC3)cc2O[C@@H]1CN(C)C(=O)Nc1cc(F)ccc1F
[74] CC(=O)NC[C@@H]1[C@@H](c2ccc(-c3cccc(F)c3)cc2)[C@@H](CO)N1C(C)=O
Compound	65	66	67	68	69	70	71	72	73	74
Ecoli rRNA inh	-3	1	-3	-1	11	-9	-1	1	-2	-1
Ecoli rRNA inh OD600	-5	5	2	-8	28	-50	-3	-4	2	0
Ecoli rRNA inh RFP	1.0	-0.2	-1.4	0.1	-5.2	24	-1.5	-2.3	5.3	1.5

# Limited to Ecoli rRNA inh RFP, for some of the entries so far:
entry | SMILES | Ecoli rRNA inh RFP
58 | CC(=O)N(C)C[C@@H]1Oc2cc(C#CC3CC3)ccc2S(=O)(=O)N([C@H](C)CO)C[C@H]1C | -0.3
57 | CCCNC(=O)Nc1ccc2c(c1)C(=O)N(C)C[C@H](OC)[C@@H](C)CN(CC1CCCC1)[C@@H](C)CO2 | 0.9
